# Bioassay records: PubChem, Broad Institute
# DUX4 txn inh: DUX4-mediated transcription inhibition. AID 1224904. activity change, negative = inhibition, % (no concentration beside the values). 293T-iDUX4 ZSCAN4-Gaussia luciferase reporter, 24 h; hits give low values. 37,000 tested, 0.8% active;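 active = -10% or lower and over 25 points stronger than a control reporter; inconclusive = -10% or lower with a smaller gap; inactive = above -10%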;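 also: 0% = median of neutral control wells and -100% = median of positive control wells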
# DUX4 txn inh difference: recorded beside DUX4 txn inh, whose call it bears; Gaussia minus Italica difference, %; measured here: selective DUX4 reporter inhibition;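 worked out from the two reporters; negative = selective loss of the DUX4 reporter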
# DUX4 txn inh control: further read-out of DUX4 txn inh, marked with its call; activity change, negative = inhibition, %; measured here: Italica tet-on control reporter;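 0 = neutral control and -100 = positive control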
# Starred values were filed as active, the others as inactive; ? = inconclusive; nt = no result given; & = joins results of further samples. These rows are one share of the data, so the mix of outcomes need not match the whole.
molecule	DUX4 txn inh	DUX4 txn inh difference	DUX4 txn inh control
C[C@H](NC(=O)C[C@H]1C=C[C@H](NC(=O)CN2CCOCC2)[C@H](CO)O1)c1ccccc1	0	5	-5.5
O=C(C[C@@H]1CC[C@H](NC(=O)C2CCOCC2)[C@@H](CO)O1)NCc1ccccc1Cl	1	1	0.3
O=C(N[C@H]1CC[C@@H](CCNC(=O)C2CCOCC2)O[C@H]1CO)c1ccccn1	2	1	0.4
Cc1ccc(-c2ccccc2[C@@H]2[C@@H](C#N)N(C(=O)Cc3cccnc3)[C@H]2CO)cc1	-6	11	-17
COc1ccccc1-c1ccc([C@@H]2[C@@H](CO)N3CCCCN(C(=O)NC4CCCC4)C[C@@H]23)cc1	?	nt	nt
O=C(c1cccc(F)c1)N1CC[C@@H]2[C@H](CO)Nc3ccc(-c4ccccc4F)cc3[C@@H]21	-32*	-33*	1.4*
CC(C)COC(=O)N(C)C[C@H]1OCc2ccccc2-c2ccccc2C(=O)N([C@@H](C)CO)C[C@@H]1C	16	9	6.6
O=C1CNC[C@@H]2[C@@H](c3ccc(-c4ccccc4F)cc3)[C@@H](CO)N12	1	3	-2.2
CCN(C[C@@H]1[C@H](c2ccccc2)[C@@H](CO)N1C(C)=O)C(=O)c1ccccn1	-1	-4	3.5
Cc1noc(C)c1NC(=O)N(C)C[C@@H]1Oc2ccc(N(C)C)cc2CC(=O)N([C@H](C)CO)C[C@@H]1C	-4	0	-3.7
O=C(Nc1ccc(F)cc1)N1CC(=O)N2[C@@H](CO)[C@H](c3ccc(Br)cc3)[C@@H]2C1	8	3	4.6
COc1ccccc1CNC(=O)C[C@@H]1CC[C@H]2[C@@H](COC[C@H](O)CN2C(=O)Nc2ccc(Cl)cc2)O1	8	14	-5.5
C[C@H](CO)N1C[C@H](C)[C@H](CN(C)C(=O)Nc2ccccc2)OCCCC[C@H](C)Oc2ccc(NC(=O)Nc3ccccc3)cc2C1=O	3	3	0.2
O=C(Nc1nccs1)[C@@H]1[C@@H](CO)[C@@H]2Cn3c(cccc3=O)[C@@H]2N1C(=O)C1CC1	4	3	0.8
O=S(=O)(c1ccc(F)cc1)N1CCCCN2[C@H](CO)[C@H](c3ccc(C4=CCCCC4)cc3)[C@@H]2C1	-42*	-30*	-12*
C[C@@H]1CCCCO[C@@H](CN(C)C(=O)Nc2ccccc2)[C@@H](C)CN([C@H](C)CO)C(=O)c2cc(NC(=O)Nc3ccccc3)ccc2O1	2	0	2.0
Cc1cccc(S(=O)(=O)N2CCCCN3[C@@H](CO)[C@H](c4ccc(C#C[C@@H](C)O)cc4)[C@@H]3C2)c1	-26*	-28*	1.9*
CC(=O)N1C[C@H]2[C@@H](c3ccccc31)[C@H](CO)N2S(=O)(=O)c1ccccc1	3	6	-3.5
CN(C)CCCNC(=O)C[C@H]1C=C[C@H](NC(=O)Cc2cccnc2)[C@@H](CO)O1	9	5	3.7
C[C@H](NC(=O)C[C@H]1CC[C@@H]2[C@H](COC[C@@H](O)CN2C(=O)Nc2cccc(F)c2)O1)c1ccccc1	5	-13	18

# A few values from the entries so far.
# `O=C(Nc1nccs1)[C@@H]1[C@@H](CO)[C@@H]2Cn3c(cccc3=O)[C@@H]2N1C(=O)C1CC1` @ DUX4 txn inh difference: 3
# `O=S(=O)(c1ccc(F)cc1)N1CCCCN2[C@H](CO)[C@H](c3ccc(C4=CCCCC4)cc3)[C@@H]2C1` @ DUX4 txn inh control: -12*
# `CC(C)COC(=O)N(C)C[C@H]1OCc2ccccc2-c2ccccc2C(=O)N([C@@H](C)CO)C[C@@H]1C` @ DUX4 txn inh: 16

# Returning to the listing, repeating the 3 entries before the break.
molecule	DUX4 txn inh	DUX4 txn inh difference	DUX4 txn inh control
CC(=O)N1C[C@H]2[C@@H](c3ccccc31)[C@H](CO)N2S(=O)(=O)c1ccccc1	3	6	-3.5
CN(C)CCCNC(=O)C[C@H]1C=C[C@H](NC(=O)Cc2cccnc2)[C@@H](CO)O1	9	5	3.7
C[C@H](NC(=O)C[C@H]1CC[C@@H]2[C@H](COC[C@@H](O)CN2C(=O)Nc2cccc(F)c2)O1)c1ccccc1	5	-13	18
C[C@@H]1CN([C@H](C)CO)C(=O)CCCn2cc(nn2)CO[C@H]1CN(C)C(=O)OCc1ccccc1	-1	-2	1.2
O=C(Nc1ccc(C(F)(F)F)cc1)Nc1ccc2c(c1)[C@@H]1C[C@H](CC(=O)N3CCc4ccccc4C3)O[C@@H](CO)[C@@H]1O2	?	nt	nt
COc1ccc2c3c([nH]c2c1)[C@@H](CO)N(Cc1nccs1)CC31CCN(Cc2cncnc2)CC1	6	-3	9.3
CC(C)NC(=O)N1[C@@H](CO)[C@H](c2ccccc2)[C@@H]1CN(C)C(=O)c1ccncc1	0	-3	3.2
O=C(C[C@H]1CC[C@H]2[C@@H](COC[C@@H](O)CN2C(=O)Nc2ccc(C(F)(F)F)cc2)O1)NCC1CCCCC1	4	3	1.8
C[C@H](CO)N1C[C@H](C)[C@H](CN(C)S(=O)(=O)c2cn(C)cn2)Oc2c(NC(=O)CCCCCC(=O)Nc3ccccc3N)cccc2C1=O	2	1	0.9
O=C(C[C@@H]1CC[C@@H]2[C@H](COC[C@H](O)CN2S(=O)(=O)c2ccccc2F)O1)N1CCC(Cc2ccccc2)CC1	?	nt	nt
CCc1csc(N2[C@@H](C#N)[C@H](c3ccc(C#Cc4ccc(F)cc4)cc3)[C@@H]2CO)n1	-1	-1	-0.7
O=C(C1CCC1)N1C[C@@H]2N[C@H](C1)C2c1ccc(/C=C/c2ccccc2)cc1 (some centres not stated)	?	nt	nt
N#Cc1ccc(-c2ccc([C@@H]3[C@@H](CO)N4CCCCN(C(=O)Nc5ccc(F)cc5)C[C@@H]34)cc2)cc1	?	nt	nt
COc1cccc(-c2ccc(C3[C@H]4CNC[C@@H]3N4C(=O)NC3CCCCC3)cc2)c1 (some centres not stated)	15&12	17&9	-2.1&2.4
CCCNC(=O)C[C@@H]1CC[C@H]2[C@@H](COC[C@H](O)CN2Cc2ccc(Cl)c(Cl)c2)O1	?	nt	nt
CN(C)C(=O)C[C@@H]1C[C@@H]2c3cc(NC(=O)Nc4ccccc4F)ccc3O[C@@H]2[C@@H](CO)O1	-1	-5	3.8
COCC(=O)N1[C@H](C#N)[C@H](c2ccc(-c3cccnc3)cc2)[C@@H]1CO	-2	-2	0.5
COc1ccc(-c2ccc(C3[C@H]4CNC[C@@H]3N4C(=O)NC3CCCC3)cc2)cc1 (some centres not stated)	9	3	6.3
COc1cccc(C#Cc2ccc3c(c2)[C@H]2[C@H](CCN2C(C)=O)[C@H](CO)N3)c1	17	3	15
CO[C@H]1CN(C)C(=O)c2cc(NC(C)=O)ccc2OC[C@H](C)N(C(=O)Cc2ccccn2)C[C@@H]1C	1	-1	2.6
O=C(C[C@H]1CC[C@@H]2[C@H](COC[C@H](O)CN2CCc2ccccc2)O1)NCCCN1CCOCC1	5	-2	6.4
CO[C@@H]1CN(C)C(=O)c2ccc(NS(C)(=O)=O)cc2OC[C@H](C)NC[C@H]1C	3	0	3.0
COc1cccc(S(=O)(=O)N2C[C@H](O)COC[C@H]3O[C@@H](CC(=O)NCCCN4CCOCC4)CC[C@@H]32)c1	2	0	1.5
Cc1noc(C)c1S(=O)(=O)N(C)C[C@H]1OCCCC[C@H](C)Oc2ccc(NC(=O)c3ccccc3)cc2C(=O)N([C@@H](C)CO)C[C@@H]1C	3	0	2.6
CN1CCN(C(=O)C[C@@H]2CC[C@@H]3[C@H](COC[C@H](O)CN3S(=O)(=O)c3cccc(F)c3)O2)CC1	2	-5	7.6
COCC(=O)N(C)C[C@H]1Oc2cc(C#CC(C)(C)O)ccc2S(=O)(=O)N([C@H](C)CO)C[C@@H]1C	2	0	1.7
C[C@@H]1CCCCO[C@@H](CN(C)S(=O)(=O)c2ccccc2)[C@@H](C)CN([C@H](C)CO)C(=O)c2cc(NC(=O)Nc3ccc4c(c3)OCO4)ccc2O1	4	8	-3.9
C[C@@H]1CN([C@@H](C)CO)C(=O)CCCn2cc(nn2)CO[C@@H]1CN(C)Cc1cccc(O)c1	1	1	-0.1
COCC(=O)Nc1ccc2c(c1)[C@@H]1C[C@H](CC(=O)NCCc3ccccc3)O[C@H](CO)[C@@H]1O2	3	3	0.2
O=C(C[C@H]1CC[C@@H]2[C@H](COC[C@@H](O)CN2CCC(F)(F)F)O1)NCc1ccc2c(c1)OCO2	-2	-2	0.0
C[C@@H]1CN([C@H](C)CO)S(=O)(=O)c2ccc(C3=CCCCC3)cc2O[C@@H]1CN(C)C(=O)C1CCCCC1	0	3	-2.4
CCN(C[C@@H]1[C@@H](c2ccccc2)[C@@H](CO)N1C(C)=O)C(=O)NC1CCCC1	2	2	-0.5
C[C@@H]1CN([C@H](C)CO)C(=O)c2cc(NS(=O)(=O)c3ccc(F)cc3)ccc2O[C@@H]1CN(C)Cc1ccc(Oc2ccccc2)cc1	2	6	-3.6
CN1c2ccc(-c3ccc(C#N)cc3)cc2[C@@H]2[C@@H](CCN2C(=O)Nc2cccc(F)c2)[C@@H]1CO	0	3	-3.0
O=C(NC1CCC1)[C@@H]1[C@@H](CO)[C@@H]2Cn3c(ccc(-c4cncnc4)c3=O)[C@@H]2N1C(=O)NC1CCCC1	-6	-4	-1.3
Cc1nc(N2[C@H](CO)[C@H](c3ccccc3)[C@H]2CNCC2CCC2)sc1C	0	-2	2.2
C[C@@H](NC(=O)C[C@H]1C[C@H]2c3cc(NS(=O)(=O)c4ccc(F)cc4)ccc3O[C@H]2[C@H](CO)O1)c1ccccc1	?	nt	nt
O=C(NC1CCCC1)N1CC2(C1)[C@H](c1ccccc1)[C@H](CO)N2CC1CCCC1	-9	-15	5.4
C[C@H]1CN([C@@H](C)CO)S(=O)(=O)c2ccc(-c3ccncc3)cc2O[C@@H]1CN(C)S(C)(=O)=O	2	0	2.0
COc1ccc(NC(=O)N(C)C[C@H]2OCc3ccccc3-c3c(n(C)c4ccccc34)C(=O)N([C@H](C)CO)C[C@@H]2C)cc1	-5	-4	-0.5
C[C@@H]1CN([C@@H](C)CO)C(=O)c2ccccc2-c2ccccc2CO[C@@H]1CN(C)Cc1ccc2c(c1)OCCN2C	6	-1	6.8
O=C(NC[C@H]1[C@@H](c2ccccc2)[C@@H](CO)N1Cc1ccccn1)NC1CCCC1	2	-1	3.1
Cc1ccc(-c2ccc([C@H]3[C@@H](CO)N4C(=O)CN(C(=O)Nc5cccc(F)c5)C[C@H]34)cc2)cc1	?	nt	nt

# Rewritten with values under each structure: two of the compounds above
# Order of results: DUX4 txn inh	DUX4 txn inh difference	DUX4 txn inh control
- COc1ccc(NC(=O)N(C)C[C@H]2OCc3ccccc3-c3c(n(C)c4ccccc34)C(=O)N([C@H](C)CO)C[C@@H]2C)cc1
 : -5	-4	-0.5
- C[C@@H]1CN([C@@H](C)CO)C(=O)c2ccccc2-c2ccccc2CO[C@@H]1CN(C)Cc1ccc2c(c1)OCCN2C
 : 6	-1	6.8

# Continued.
molecule	DUX4 txn inh	DUX4 txn inh difference	DUX4 txn inh control
O=C(NCC1CC1)[C@@H]1[C@@H](CO)[C@@H]2Cn3c(cccc3=O)[C@@H]2N1C(=O)CC1CC1	8	1	6.9
CNC[C@@H]1Oc2ccc(N)cc2CC(=O)N([C@H](C)CO)C[C@H]1C	-1	-5	4.1
O=C(c1ccccn1)N1CC[C@H]2[C@H](CO)Nc3ccc(-c4ccccc4)cc3[C@H]21	4	2	2.2
O=C(C[C@@H]1CC[C@@H]2[C@H](COC[C@@H](O)CN2C(=O)Nc2ccc(C(F)(F)F)cc2)O1)NC1Cc2ccccc2C1	?	nt	nt
CCS(=O)(=O)Nc1ccc2c(c1)C(=O)N(C)[C@H]1CC[C@@H](CC(=O)NCc3ccccc3F)O[C@@H]1CO2	4	0	3.8
O=C(CCN1CCCCC1)NCC[C@@H]1CC[C@H](NS(=O)(=O)c2cccc(Cl)c2)[C@@H](CO)O1	2	-1	2.9
C[C@@H]1CN([C@H](C)CO)C(=O)c2cc(-c3ccc(C#N)cc3)cnc2O[C@H]1CN(C)C(=O)CC1CC1	3	4	-1.1
CCNC(=O)C[C@@H]1CC[C@H]2[C@@H](COc3ccc(NC(=O)c4ccc(C(F)(F)F)cc4)cc3C(=O)N2C)O1	1	-1	2.4
CO[C@H]1CN(C)C(=O)c2ccc(NC(=O)Nc3cc(F)ccc3F)cc2OC[C@@H](C)N(C)C[C@H]1C	7	0	6.7
O=C(c1cccc(F)c1)N1CCCCN2[C@H](C1)[C@@H](c1ccc(C#CC3(O)CCCC3)cc1)[C@@H]2CO	?	nt	nt
COc1ccc(-c2ccc([C@@H]3[C@@H](CO)N(C(=O)C4CCCC4)[C@H]3C#N)cc2)cc1	3	0	2.5
CC(C)NC(=O)N1[C@@H](C#N)[C@H](c2ccc(C#CC3CC3)cc2)[C@@H]1CO	?	nt	nt
O=C(C[C@H]1CC[C@@H]2[C@H](COC[C@H](O)CN2S(=O)(=O)c2ccccc2)O1)NCc1ccc2c(c1)OCO2	3	4	-1.5
CCNC(=O)[C@H]1[C@H](CO)[C@H]2Cn3c(ccc(-c4ccc(OC)cc4)c3=O)[C@@H]1N2S(C)(=O)=O	0	-1	1.5
Cc1ccc(-c2ccc([C@H]3[C@H](CO)N4C(=O)CN(C(=O)CN5CCOCC5)C[C@@H]34)cc2)cc1	10	2	7.9
C[C@@H]1CCCCO[C@@H](CN(C)Cc2ccc(Cl)c(Cl)c2)[C@H](C)CN([C@@H](C)CO)C(=O)c2cc(NS(=O)(=O)c3cccs3)ccc2O1	-1	2	-2.4
CCNC(=O)[C@@H]1[C@@H](CO)[C@@H]2Cn3c(ccc(C4=CCCCC4)c3=O)[C@@H]2N1C(=O)c1cnccn1	4	0	3.8
Cc1ccc(-c2ccccc2[C@@H]2[C@@H](C#N)N(C(=O)NC3CCCC3)[C@H]2CO)cc1	?	nt	nt
